PMP22 txn = Cell-based coincidence reporter assay to measure PMP22 gene transcription in S16 Pmp22-F2sN cells - Primary screen; Potency, µM (titrated, usually from 57.5 µM), inactives show at the highest dose activity change, negative = inhibition, hits mostly inhibitors; AID 1508649, 2021; S16 Pmp22-F2sN Schwann cells (luciferase reporters placed in the Pmp22 gene), FLuc/NLuc coincidence luminescence, 24 h; 2% of 43,000 active; active = clear falling dose curves in both reporters; inconclusive = both reporters move, but less clearly or upward; inactive = either reporter flat; the % is the NLuc reporter signal; also: % is scaled to controls: 0 for no effect and ±100 for the full control effect; some results filed as inactive show a strong effect at the top dose
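Reporter cells (S16 Pmp22-F2sN, 500–1,000 per well) exposed to compounds for 24 h, 37C, 5% CO2; lysis with FLuc read after 10 min, then Stop&Glo and NLuc read after 10 min.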
HTT prom inh = Primary qHTS for Identification of Small Molecule Inhibitors of Huntingtin Promoter Activity. AID 1508623, 2021. HEK293 HTT promoter firefly luciferase reporter (activity 0% = vehicle and -100% = no light), 24 h. Potency, µM (doses to about 57.5 µM), inactives show top-dose activity change, negative = inhibition, actives largely listed as inhibitors. 0.93% of 48,000 active; active = well fitted inhibition curve with a large enough effect; inconclusive = small, poorly fitted or top-dose-only effect; inactive = no such curve, though single readings can be large or run the other way; also: nearly all actives have a fitted effect of over 50% in size
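Luminescence was read after Dual-Glo reagent and a 10 min room-temperature incubation. Values were normalized to vehicle (0% activity) and zero RLU (-100% activity). Reporter HEK293 cells had been exposed to compounds (up to 57.5 uM final) for 24 h.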
Active calls of the source: *; [ ] = another dose, or the depositor's remark. Potency is read from the fitted curve at half-maximal effect. A portion of the library (hit frequency here may not be typical).

How did COc1ccc2c(c1)c1c(c(=O)n(-c3cccc(Cl)c3)c(=O)n1CC(=O)NCC1CCCO1)n2C (configuration not stated) do in these assays?
PMP22 txn: -24%; HTT prom inh: -3%

What do the screens show for `COc1ccc(C(=O)NCC(c2cccs2)S(=O)(=O)c2ccc(C)cc2)cc1` (configuration not stated)?
PMP22 txn: -47%; HTT prom inh: inconclusive

What do the screens show for `CCOC(=O)c1ccc(NC(=O)C2Cc3ccccc3C(=O)O2)cc1` (configuration not stated)?
PMP22 txn: 3%; HTT prom inh: 35%[activator]

How did Cc1nc2c(-c3ccc(F)cc3)c(C)nn2c(C)c1CCC(=O)NCc1cccc(Cl)c1 do in these assays?
PMP22 txn: inconclusive; HTT prom inh: -9%

Results for COc1ccccc1C(=O)OCc1cc(=O)n2nc(C3CC3)sc2n1 ?
PMP22 txn: -15%; HTT prom inh: 21%

How did Cc1ccc(Cn2c(C(=O)O)c(CNC3CCCCC3)c3ccc(C)cc32)cc1 do in these assays?
PMP22 txn: 15%; HTT prom inh: -12%

What do the screens show for `Cc1ccc(NC(=O)c2ccc(-c3cccc(Cl)c3C)o2)cc1`?
PMP22 txn: -3%; HTT prom inh: 14%

Results for CCn1cc(C(=O)N(C)Cc2ccccc2)c(=O)c2cc(S(=O)(=O)N3CCc4ccccc4C3)ccc21 ?
PMP22 txn: -5%; HTT prom inh: 0%

How did C=CC(=O)Nc1cccc(Sc2nc(Nc3ccc(N4CCN(C)CC4)cc3)ncc2Cl)c1 do in these assays?
HTT prom inh: -16%

Results for CCC(C)c1ccccc1OCC(=O)Nc1ccc(S(=O)(=O)Nc2cc(C)on2)cc1 (configuration not stated) ?
PMP22 txn: -6%; HTT prom inh: -6%

How did Cc1c(C(=O)Nc2ccc(F)c(F)c2)oc2ccc(S(=O)(=O)N(C)C3CCCCC3)cc12 do in these assays?
PMP22 txn: -3%; HTT prom inh: inconclusive

Results for O=C(NCc1ccccc1)c1ccc(CSc2nc3cccnc3n2Cc2ccccc2F)cc1 ?
PMP22 txn: inconclusive; HTT prom inh: inconclusive

How did CCN(CC)c1ccc(CNS(=O)(=O)c2cc3c(cc2C)NC(=O)CO3)cc1 do in these assays?
PMP22 txn: inconclusive; HTT prom inh: -18%

How did CCc1ccc(NC(=O)Cn2cc(S(=O)(=O)N3CCCC3)c(S(=O)(=O)N3CCCC3)c2)cc1 do in these assays?
PMP22 txn: -6%; HTT prom inh: -13%

How did CCOC(=O)N1CCc2c(sc3c2C(=O)NC(c2ccccc2F)N3)C1 (configuration not stated) do in these assays?
PMP22 txn: inconclusive; HTT prom inh: -14%

What do the screens show for `Cc1ccc(CN(C(=O)COc2cccc([N+](=O)[O-])c2)c2ccccn2)o1`?
PMP22 txn: -26%; HTT prom inh: -27%

Results for CC1CCC(NC(=O)CCc2cn(Cc3ccc(F)cc3)c3ccccc23)CC1 (configuration not stated) ?
PMP22 txn: inconclusive; HTT prom inh: inconclusive

Results for CCc1nc2ccc(C(=O)N3CCN(c4cccc(OC)c4)CC3)cc2nc1CC ?
PMP22 txn: inconclusive; HTT prom inh: -14%

What do the screens show for `CCOc1ccc(C(=O)Nc2ccc3c(c2)CCCN3S(=O)(=O)c2ccc(C)cc2)cc1`?
PMP22 txn: 0%; HTT prom inh: inconclusive

What do the screens show for `Cc1ccc(-c2cnc(NCc3ccc(C(F)(F)F)cc3)n2C)cc1`?
PMP22 txn: inconclusive; HTT prom inh: -11%

Results for CCOc1ccc(/C=C/c2nc(C#N)c(NCCc3ccccc3)o2)cc1 ?
PMP22 txn: inconclusive; HTT prom inh: -13%

Results for Cc1cccc(OCC(=O)Nc2ccc3nc(Nc4cccc(Cl)c4)cc(C)c3c2)c1 ?
PMP22 txn: inconclusive; HTT prom inh: -26%

Results for NC(=O)NO ?
HTT prom inh: inconclusive

How did Cc1c(Cl)cccc1NC(=O)CCS(=O)(=O)c1ccc(Br)s1 do in these assays?
PMP22 txn: -20%; HTT prom inh: -3%

Results for CN[C@H]1CC[C@@H](c2ccc(Cl)c(Cl)c2)c2ccccc21 ?
HTT prom inh: inconclusive

How did Cc1cccc(OC(=O)c2cc(-c3ccc(Cl)cc3)on2)c1C do in these assays?
PMP22 txn: -23%; HTT prom inh: -5%

Results for CCOC(=O)c1cc(NC(=O)c2ccccc2)c(=O)n2c1oc1ccc(Cl)cc12 ?
PMP22 txn: inconclusive; HTT prom inh: -3%

How did COc1ccc(CNC(=O)Cn2ccc3cc(S(=O)(=O)N4CCCCC4)ccc32)c(OC)c1 do in these assays?
PMP22 txn: -17%; HTT prom inh: -23%

What do the screens show for `COc1cccc(CNC(=O)c2cnc(N3CCCCC3)c3ccccc23)c1`?
PMP22 txn: -46%; HTT prom inh: -15%

What do the screens show for `CC(=O)c1ccc(NC(=O)c2cc(-c3ccc(C)s3)nc3ccccc23)cc1`?
PMP22 txn: inconclusive; HTT prom inh: 2%

How did N#Cc1ccccc1NC(=O)C(=O)NCC(c1cccnc1)N1CCc2ccccc2C1 (configuration not stated) do in these assays?
PMP22 txn: -23%; HTT prom inh: 1%

How did CCCCc1nn2c(=O)cc(COC(=O)c3cccc(NC(=O)CCc4ccccc4)c3)nc2s1 do in these assays?
PMP22 txn: inconclusive; HTT prom inh: 72%[activator]

What do the screens show for `O=C(Nc1ccccc1C(F)(F)F)c1ccc(F)c(S(=O)(=O)N2CCc3ccccc3C2)c1`?
PMP22 txn: -5%; HTT prom inh: inconclusive

How did CCCOC(=O)c1c(NC(=O)c2cc3nc(-c4ccc(OC)cc4)cc(C(F)(F)F)n3n2)sc2c1CCCC2 do in these assays?
PMP22 txn: 6%; HTT prom inh: -10%

Results for CCOC(=O)CNC(=O)N1CCCN(S(=O)(=O)c2ccc3c(ccn3CC)c2)CC1 ?
PMP22 txn: -24%; HTT prom inh: -22%

What do the screens show for `Cc1ccccc1CNC(=O)c1ccc(Cn2c(SCc3ccccc3)nc3cccnc32)cc1`?
PMP22 txn: -75%; HTT prom inh: -13%

How did O=C(Cn1cc(S(=O)(=O)Cc2ccc(F)cc2)c2ccccc21)NCc1ccccc1 do in these assays?
PMP22 txn: -3%; HTT prom inh: -20%

What do the screens show for `CCc1ccc(CNC(=O)CCn2nc(C)c3c(C)n(-c4ccccc4)nc3c2=O)cc1`?
PMP22 txn: -19%; HTT prom inh: 7%

How did CC(CNC(=O)c1ccc2nc(CCc3ccccc3)oc2c1)c1ccccc1 (configuration not stated) do in these assays?
PMP22 txn: -6%; HTT prom inh: -2%

What do the screens show for `CC1CCN(C(=O)c2ccc3c(c2)N(Cc2ccccc2F)C(=O)c2ccccc2S3(=O)=O)CC1`?
PMP22 txn: -18%; HTT prom inh: -28%

Sorted by molar mass (high to low): part of the list above.
What do the screens show for `Cc1ccccc1CNC(=O)c1ccc(Cn2c(SCc3ccccc3)nc3cccnc32)cc1`?
PMP22 txn: -75%; HTT prom inh: -13%

How did N#Cc1ccccc1NC(=O)C(=O)NCC(c1cccnc1)N1CCc2ccccc2C1 (configuration not stated) do in these assays?
PMP22 txn: -23%; HTT prom inh: 1%

How did CC(CNC(=O)c1ccc2nc(CCc3ccccc3)oc2c1)c1ccccc1 (configuration not stated) do in these assays?
PMP22 txn: -6%; HTT prom inh: -2%

(further entries)
What do the screens show for `Fc1ccc(Nc2nc3nonc3nc2Nc2cccc(C(F)(F)F)c2)cc1`?
PMP22 txn: 7.3µM*; HTT prom inh: 1.3µM*

What do the screens show for `CN(C(=O)c1cc2nc(-c3ccco3)cc(C(F)(F)F)n2n1)c1ccc(OC(F)(F)Cl)cc1`?
PMP22 txn: -31%; HTT prom inh: 3%

How did COc1cccc(NC(=O)c2c(C)oc3nc(C)nc(N4CCCC4)c23)c1 do in these assays?
PMP22 txn: 0%; HTT prom inh: -1%

Results for COC(=O)CN1C(=O)C(O)(CC(=O)c2ccc(F)cc2)c2ccccc21 (configuration not stated) ?
PMP22 txn: -28%; HTT prom inh: -6%[11.5 µM]

How did COc1cccc(-c2ccc3c(N)c(C(=O)c4ccc(Cl)cc4)sc3n2)c1 do in these assays?
PMP22 txn: inconclusive; HTT prom inh: -11%

What do the screens show for `CCc1ccc(-n2nc(C)c3c(C)cc(=O)n(CC(=O)Nc4cc(C)ccc4C)c32)cc1`?
PMP22 txn: -14%; HTT prom inh: -19%

What do the screens show for `CCOc1ccc(CC(=O)NCCc2sc(-c3cccc(F)c3)nc2C)cc1`?
PMP22 txn: -8%; HTT prom inh: inconclusive

What do the screens show for `Fc1ccc(-c2nn(-c3ccc(Cl)cc3)c3c2cnc2ccc(F)cc23)cc1`?
PMP22 txn: 19%; HTT prom inh: 1%

How did COc1ccc(-c2nc(S(=O)(=O)c3ccc(Cl)cc3)c(NCc3ccccc3)o2)cc1 do in these assays?
PMP22 txn: inconclusive; HTT prom inh: -4%

What do the screens show for `O=C(Nc1c2c(nn1-c1ccc(Cl)cc1)CS(=O)(=O)C2)c1cccc(Cl)c1`?
PMP22 txn: -17%; HTT prom inh: inconclusive

Results for CCCCc1nn2c(=O)cc(COC(=O)c3ccc(NC(=O)c4ccccc4Cl)cc3)nc2s1 ?
PMP22 txn: -3%; HTT prom inh: 17%

Results for CCN(CCCNC(=O)Cn1ncc2c3ccccc3n(C)c2c1=O)Cc1ccccc1 ?
PMP22 txn: inconclusive; HTT prom inh: 10%

Results for COc1cc(Cl)c(C)cc1NC(=O)CCc1c(C)nc2c3cccnc3nn2c1C ?
PMP22 txn: -3%; HTT prom inh: 0%

How did CCc1ccc(NC(=O)N2CCN(Cc3nc4ccc(C)cc4o3)CC2)cc1 do in these assays?
PMP22 txn: -23%; HTT prom inh: -38%

What do the screens show for `CCN(CC)c1cc(C)c2cc(NC(=O)c3ccccc3OC)ccc2n1`?
PMP22 txn: inconclusive; HTT prom inh: -3%

Results for COc1cccc(NC(=O)CCc2nc3c(C)nn(-c4ccc(C)cc4)c3n(C)c2=O)c1 ?
PMP22 txn: 5%; HTT prom inh: -6%

How did CCOC(=O)CC1c2cc(OCC)c(OCC)cc2CCN1C(=O)Nc1cccc(Cl)c1 (configuration not stated) do in these assays?
PMP22 txn: -6%; HTT prom inh: -21%

What do the screens show for `Cc1ccc2c(c1)C(c1ccccc1)N(C(=O)Cc1ccc(F)cc1)CC(=O)N2` (configuration not stated)?
PMP22 txn: inconclusive; HTT prom inh: -27%

How did CCc1ccccc1NC(=O)CSc1ncc2c(n1)-c1ccccc1N(C)S2(=O)=O do in these assays?
PMP22 txn: -18%; HTT prom inh: -29%

What do the screens show for `Cc1ccc(COc2ccc(-c3cc(C(F)(F)F)n4nc(C)cc4n3)cc2)cc1`?
PMP22 txn: 7%; HTT prom inh: 0%

Results for COc1cc(NC(=O)c2nn(-c3ccc(C)cc3)c(=O)c3c2c2ccccc2n3C)cc(OC)c1OC ?
PMP22 txn: inconclusive; HTT prom inh: -16%

Results for CCOC(=O)c1ccc(NC(=O)c2c(C)nn(-c3ccc(F)cc3)c2-n2cccc2)cc1 ?
PMP22 txn: inconclusive; HTT prom inh: -14%

What do the screens show for `COc1ccc(NC(=O)CC2C(=O)N(c3ccc(C)cc3)C(=O)N2C2CCCCC2)cc1` (configuration not stated)?
PMP22 txn: 20%; HTT prom inh: -16%

Results for Cc1csc2nc(COC(=O)c3ccccc3NC(=O)c3cccc(Br)c3)cc(=O)n12 ?
PMP22 txn: inconclusive; HTT prom inh: inconclusive

What do the screens show for `O=C(Nc1ccc2nc(SCC(=O)N3CCc4ccccc43)sc2c1)c1ccc(F)cc1`?
PMP22 txn: inconclusive; HTT prom inh: inconclusive

Results for Cc1ccc(CSC2=Nc3ccccc3C3=NC(CC(=O)NCc4cccs4)C(=O)N23)c(C)c1 (configuration not stated) ?
PMP22 txn: -1%; HTT prom inh: -4%

Results for CCc1nn2c(=O)cc(COC(=O)c3ccc(NC(=O)COc4ccccc4C)cc3)nc2s1 ?
PMP22 txn: -8%; HTT prom inh: -19%

What do the screens show for `COc1ccc(-n2c(=O)c3c4c(sc3n(C)c2=O)CN(C(C)=O)CC4)cc1`?
PMP22 txn: -10%; HTT prom inh: -13%

What do the screens show for `COc1ccc(C2CC(=O)Nc3c2c(C)nn3-c2nncc(-c3ccc(C)cc3)n2)c(OC)c1OC` (configuration not stated)?
PMP22 txn: inconclusive; HTT prom inh: -17%

How did O=C(CCc1nc2cccnc2n1Cc1cccs1)Nc1cccc(Cl)c1 do in these assays?
PMP22 txn: -7%; HTT prom inh: inconclusive

Results for CC(C)c1ccc(OC(=O)c2cc(-c3ccccc3)on2)cc1 ?
PMP22 txn: 3%; HTT prom inh: 1%

Pulled by compound from the list above:
Results for Cc1ccc(CSC2=Nc3ccccc3C3=NC(CC(=O)NCc4cccs4)C(=O)N23)c(C)c1 (configuration not stated) ?
PMP22 txn: -1%; HTT prom inh: -4%

Results for CCc1nn2c(=O)cc(COC(=O)c3ccc(NC(=O)COc4ccccc4C)cc3)nc2s1 ?
PMP22 txn: -8%; HTT prom inh: -19%

What do the screens show for `COc1ccc(C2CC(=O)Nc3c2c(C)nn3-c2nncc(-c3ccc(C)cc3)n2)c(OC)c1OC` (configuration not stated)?
PMP22 txn: inconclusive; HTT prom inh: -17%

What do the screens show for `COc1ccc(NC(=O)CC2C(=O)N(c3ccc(C)cc3)C(=O)N2C2CCCCC2)cc1` (configuration not stated)?
PMP22 txn: 20%; HTT prom inh: -16%

Results for CCOC(=O)c1ccc(NC(=O)c2c(C)nn(-c3ccc(F)cc3)c2-n2cccc2)cc1 ?
PMP22 txn: inconclusive; HTT prom inh: -14%
